Source: PubChem (several laboratories)
Yeast UUG start – yeast start codon fidelity modulation; activity score, % at 18.7 µM; AID 602363; S. cerevisiae UUG-firefly luciferase reporter, luminescence/redox ratio; 0.13% of 350,000 active;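 active = replicate mean at a twofold rise or more, about +100% in these data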;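 also: firefly luciferase made from a UUG start codon reports start codon fidelity; reporter light over untreated wells divided by growth signal over untreated wells; some hits fall short of that in this replicate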
HIV Env fusion – inhibitors of HIV Env-mediated cell fusion | HeLa-JRFL Env/CEM21 cell fusion, luciferase | inhibition, % at 12.3 µM | 1.1% of 360,000 active | AID 651610;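 active = mean replicate inhibition score of at least 50 and every replicate individually at or above 50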;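 also: 0% = plate neutral controls and 100% = maraviroc near 300 nM; one replicate is shown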
MT1-MMP act inh – inhibitors of human MT1-MMP activation; P50281; HT1080 RFP-PRO-GFP cells, GFP/RFP ratio fluorescence, overnight; percent of plate control window, DMSO zero; GFP/RFP ratio change, % at 20 µM; 0.061% of 360,000 active;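 active = GFP/RFP ratio change of at least 30% with cell ATP level not reduced by more than half and red fluorescence within 50% of control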; also: strong numbers were not always called active
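Assay system: HT1080 RFP-PRO-GFP cells | Dosing: 20 µM single dose, 1% DMSO | Incubation: Cells overnight before dosing, compound overnight, 37 °C, 5% CO2 | Evaluation: GFP/RFP fluorescence ratio | Control set: DMSO-only wells and HT1080 RFP-L50D-GFP cell wells as references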
PABP polyA inh – PABP-poly(A) binding inhibition. P11940. PABP-poly(A) RNA binding, fluorescence polarization. inhibition, % at 35 µM. 1% of 290,000 active;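 active = 50% or more with normal probe brightness, or confirmed in later tests; about a fifth of its hits are not listed in these tables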;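 also: calls also rest on retests at 20 µM and on dose response follow-up; controls were probe without protein and protein plus probe with vehicle; some compounds called inactive have numbers as strong as hits; many hits fall short of the cut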
Target sequence (P11940 whole entry, looked up): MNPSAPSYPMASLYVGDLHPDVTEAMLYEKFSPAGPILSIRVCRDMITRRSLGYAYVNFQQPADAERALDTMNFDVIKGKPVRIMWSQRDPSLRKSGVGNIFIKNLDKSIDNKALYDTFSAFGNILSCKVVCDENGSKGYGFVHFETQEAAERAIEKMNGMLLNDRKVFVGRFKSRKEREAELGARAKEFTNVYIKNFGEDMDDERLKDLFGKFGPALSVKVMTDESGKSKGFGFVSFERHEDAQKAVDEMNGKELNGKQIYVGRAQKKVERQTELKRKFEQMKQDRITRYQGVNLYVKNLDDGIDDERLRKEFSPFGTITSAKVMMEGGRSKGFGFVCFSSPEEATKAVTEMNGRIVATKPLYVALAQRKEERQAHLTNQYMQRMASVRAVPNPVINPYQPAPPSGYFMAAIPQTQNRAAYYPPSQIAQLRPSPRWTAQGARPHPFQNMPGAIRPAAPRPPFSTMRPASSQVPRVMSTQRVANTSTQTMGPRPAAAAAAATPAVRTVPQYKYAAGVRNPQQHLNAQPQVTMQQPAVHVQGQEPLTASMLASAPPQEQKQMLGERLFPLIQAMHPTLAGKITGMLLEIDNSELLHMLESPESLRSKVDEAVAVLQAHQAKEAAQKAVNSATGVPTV
eIF4H inh – inhibitors of RNA binding by human eIF4H; Q15056; eIF4H fluorescence polarization binding assay; inhibition, % at 35 µM; 0.94% of 290,000 active;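 active = 50% or more with normal probe brightness, or confirmed in later tests; about a fifth of its hits are not listed in these tables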;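 also: calls also rest on retests at 20 µM and on dose response follow-up; 0% = protein and probe with vehicle and 100% = probe without protein; strong numbers were not always called active; many hits fall short of the cut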
Rce1 inh – yeast Ras-converting enzyme inhibition; Q03530; yeast membranes, quenched prenylated peptide cleavage fluorescence; calls only; 0.27% of 290,000 active; AID 2563;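 active = fall in fluorescence gain of 50% or more versus controls, with final raw signal at or below 3038400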;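 also: plate controls were neutral control wells for no effect and wells lacking membranes for full effect; tested at 10 µM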
Target sequence (Q03530 whole entry, looked up): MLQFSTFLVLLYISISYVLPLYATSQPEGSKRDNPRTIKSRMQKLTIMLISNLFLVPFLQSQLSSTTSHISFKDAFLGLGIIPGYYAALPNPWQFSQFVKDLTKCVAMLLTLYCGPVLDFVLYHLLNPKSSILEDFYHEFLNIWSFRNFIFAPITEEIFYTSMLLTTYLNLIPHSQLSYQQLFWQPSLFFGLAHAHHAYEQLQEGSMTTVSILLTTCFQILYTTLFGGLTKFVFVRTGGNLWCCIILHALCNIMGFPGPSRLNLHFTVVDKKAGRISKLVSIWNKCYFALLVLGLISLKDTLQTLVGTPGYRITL
CSC inhib – blocks cancer stem cells; cancer stem cell-like cells viability, luminescence; AID 2717; inhibition, % at 7.5 µM; 1.1% of 300,000 active;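 active = mean at 75% or more and at least half the replicates too; tested in HMLE shEcad cells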;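 also: 0% = median of negative and 100% = median of positive control wells; the first replicate is given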
MT1-MMP act inh RFP – recorded beside MT1-MMP act inh, whose call it bears; RFP signal change, %; measured here: RFP expression control read;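 0 = vehicle wells; hits needed this value within 50% of zero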
* = called active by the depositor.

CN1CCN(CCC(=O)N/N=C/c2ccccn2)CC1 was read as Yeast UUG start -17.6, HIV Env fusion 6.0, MT1-MMP act inh 4.4, PABP polyA inh 6.5, eIF4H inh -9.4, Rce1 inh inactive, CSC inhib -14.4 and MT1-MMP act inh RFP 3.6.
For COc1ccc(C2/C(=C(/O)c3ccc4c(c3)CC(C)O4)C(=O)C(=O)N2CCCn2ccnc2)cc1OC (centres undefined) the results were Yeast UUG start -26.7, HIV Env fusion -1.9, MT1-MMP act inh -3.0 and MT1-MMP act inh RFP -1.1.
Screening CC1Cc2ccccc2N1C(=O)COC(=O)c1ccc(O)cc1 (centres undefined) returned Yeast UUG start -6.3, HIV Env fusion 16.0, MT1-MMP act inh 1.1, PABP polyA inh 1.0, eIF4H inh 3.0, Rce1 inh inactive, CSC inhib -16.8 and MT1-MMP act inh RFP -2.6.
For c1ccc(-c2ccccc2-c2nc(-c3cccnc3)no2)cc1 the results were Yeast UUG start -30.9, MT1-MMP act inh -11.6, PABP polyA inh 3.8, eIF4H inh -6.2, Rce1 inh inactive, CSC inhib 10.7 and MT1-MMP act inh RFP -4.3.
Screening CCOc1ccccc1Nc1nnc(SCC(=O)NC(=O)c2cccn2C)s1 returned HIV Env fusion -23.8, MT1-MMP act inh 0.6, PABP polyA inh 4.5, eIF4H inh 8.4, Rce1 inh inactive, CSC inhib -11.7 and MT1-MMP act inh RFP 0.0.
COc1ccc(S(=O)(=O)NC(Cc2ccccc2)C(=O)O)cc1 (centres undefined) was read as Yeast UUG start -12.0, HIV Env fusion -3.1, MT1-MMP act inh -5.1, PABP polyA inh -6.1, eIF4H inh -13.5, Rce1 inh inactive, CSC inhib -11.2 and MT1-MMP act inh RFP 1.9.
For C/C(CC(=O)NCc1ccco1)=N\NC(=O)Cc1ccc(-c2ccccc2)cc1 the results were HIV Env fusion -10.4, MT1-MMP act inh -3.5, PABP polyA inh -1.5, eIF4H inh 2.7, Rce1 inh inactive, CSC inhib -21.7 and MT1-MMP act inh RFP 2.7.
O=C(NCc1ccc2c(c1)OCO2)c1cccc(C(=O)NCc2ccc3c(c2)OCO3)c1 was read as Yeast UUG start -6.6, MT1-MMP act inh 15.9, PABP polyA inh 9.4, eIF4H inh -6.2, Rce1 inh inactive, CSC inhib -4.7 and MT1-MMP act inh RFP -4.0.
Screening CCOC(=O)N1CCN(c2cc(N3CCOCC3)c(F)cc2[N+](=O)[O-])CC1 returned Yeast UUG start -5.1, HIV Env fusion 8.3, MT1-MMP act inh -1.0, PABP polyA inh -14.5, eIF4H inh -7.5, Rce1 inh inactive, CSC inhib -4.6 and MT1-MMP act inh RFP -3.3.
`COc1ccc(CC(=O)N2CCc3cc(OC)c(OC)cc3C2)cc1` gave Yeast UUG start 4.7, HIV Env fusion -15.1, MT1-MMP act inh -3.5, PABP polyA inh -12.7, eIF4H inh -9.7, Rce1 inh inactive, CSC inhib -1.7 and MT1-MMP act inh RFP 3.5.
For COc1ccc(C2(C(=O)N3CCC(n4nc(-c5ccccc5)oc4=O)CC3)CC2)cc1 the results were Yeast UUG start -16.8, MT1-MMP act inh -2.1, PABP polyA inh 11.6, eIF4H inh -13.4, Rce1 inh inactive, CSC inhib 6.2 and MT1-MMP act inh RFP -6.2.
For O=[N+]([O-])c1ccc(N2CCN(Cc3ccc([N+](=O)[O-])o3)CC2)cc1 the results were Yeast UUG start -4.3, HIV Env fusion -10.0, MT1-MMP act inh 3.3, PABP polyA inh 7.0, eIF4H inh 20.5, Rce1 inh inactive, CSC inhib -5.0 and MT1-MMP act inh RFP -2.7.
`CCc1cn([C@H]2C[C@H](O)[C@@H](CO)O2)c(=O)[nH]c1=O` gave Yeast UUG start -11.0, HIV Env fusion 14.3, MT1-MMP act inh 2.3, PABP polyA inh 20.8, eIF4H inh 3.8, Rce1 inh inactive, CSC inhib -6.0 and MT1-MMP act inh RFP 2.5.
For COc1ccc(NC(=O)CCCN2C(=O)C(c3ccccc3)Oc3cccnc32)cc1OC (centres undefined) the results were Yeast UUG start -17.2, HIV Env fusion 4.5, MT1-MMP act inh 2.5, Rce1 inh inactive, CSC inhib -14.2 and MT1-MMP act inh RFP 0.4.
`O=C1NCCN(Cc2cccc(Oc3ccccc3)c2)C1CC(=O)N1CCCCO1` (centres undefined) gave HIV Env fusion 18.0, MT1-MMP act inh -3.9, PABP polyA inh 6.1, eIF4H inh -5.6, Rce1 inh inactive, CSC inhib -2.0 and MT1-MMP act inh RFP 0.7.
For C/C(=N\NC(=O)C(NC(=O)c1ccccc1)C(C)C)c1ccccc1 (centres undefined) the results were Yeast UUG start -9.5, MT1-MMP act inh -2.5, PABP polyA inh -8.4, eIF4H inh 3.5, Rce1 inh inactive, CSC inhib -1.1 and MT1-MMP act inh RFP 0.8.
Screening CCOCCCNC(=O)C1CCN(Cc2ccc(OCc3ccccc3)c(OC)c2)CC1 returned Yeast UUG start 5.2, HIV Env fusion -8.8, MT1-MMP act inh -2.3, PABP polyA inh 18.3, eIF4H inh 15.1, Rce1 inh inactive, CSC inhib -11.6 and MT1-MMP act inh RFP -5.8.
CC(=O)c1ccc(N=C2SCCCN2C(=O)C2CCCCC2)cc1 was read as HIV Env fusion 27.5, MT1-MMP act inh -1.2, PABP polyA inh -6.8, eIF4H inh 7.7, Rce1 inh inactive, CSC inhib 2.7 and MT1-MMP act inh RFP -6.2.
For O=C(CSc1nc(=O)n2ccccc2n1)N1CCN(c2ccccc2)CC1 the results were Yeast UUG start 9.8, HIV Env fusion 3.4, MT1-MMP act inh 8.0, Rce1 inh inactive, CSC inhib -7.0 and MT1-MMP act inh RFP -0.3.
`CCN(CC)C(=O)Cn1cc(SCC(=O)Nc2cc(C)on2)c2ccccc21` gave HIV Env fusion 2.0, MT1-MMP act inh 0.3, PABP polyA inh -13.7, eIF4H inh -12.1, Rce1 inh inactive, CSC inhib -11.6 and MT1-MMP act inh RFP 7.3.

A draw from above in order of length of the SMILES, ascending:
Screening CCOc1ccccc1Nc1nnc(SCC(=O)NC(=O)c2cccn2C)s1 returned HIV Env fusion -23.8, MT1-MMP act inh 0.6, PABP polyA inh 4.5, eIF4H inh 8.4, Rce1 inh inactive, CSC inhib -11.7 and MT1-MMP act inh RFP 0.0.
`O=C1NCCN(Cc2cccc(Oc3ccccc3)c2)C1CC(=O)N1CCCCO1` (centres undefined) gave HIV Env fusion 18.0, MT1-MMP act inh -3.9, PABP polyA inh 6.1, eIF4H inh -5.6, Rce1 inh inactive, CSC inhib -2.0 and MT1-MMP act inh RFP 0.7.
For O=[N+]([O-])c1ccc(N2CCN(Cc3ccc([N+](=O)[O-])o3)CC2)cc1 the results were Yeast UUG start -4.3, HIV Env fusion -10.0, MT1-MMP act inh 3.3, PABP polyA inh 7.0, eIF4H inh 20.5, Rce1 inh inactive, CSC inhib -5.0 and MT1-MMP act inh RFP -2.7.

(next part)
For Cc1ccc(NC(=O)CS(=O)CC(=O)NCCCN(C)c2ccccc2)cc1 (centres undefined) the results were Yeast UUG start -15.8, HIV Env fusion -17.8, MT1-MMP act inh 1.0, PABP polyA inh -1.3, eIF4H inh -5.7, Rce1 inh inactive, CSC inhib -8.4 and MT1-MMP act inh RFP 4.4.
For O=C(OCc1nnc(-c2ccc([N+](=O)[O-])cc2)o1)C1CCN(C(=O)c2ccc(Cl)cc2)CC1 the results were Yeast UUG start -11.5, HIV Env fusion -10.1, MT1-MMP act inh 2.5 and MT1-MMP act inh RFP 0.5.
For O=C(Cc1cccs1)N1CCN(S(=O)(=O)c2ccc(F)cc2)CC1 the results were HIV Env fusion 9.5, MT1-MMP act inh 1.1, PABP polyA inh 1.8, eIF4H inh -3.0, Rce1 inh inactive and MT1-MMP act inh RFP 0.8.
`O=C1N(CCCl)c2ccc(Br)cc2C12OCCO2` gave Yeast UUG start 4.3, HIV Env fusion 6.9, MT1-MMP act inh -1.1, PABP polyA inh 5.1, eIF4H inh 0.7, Rce1 inh inactive, CSC inhib -13.8 and MT1-MMP act inh RFP -1.8.
COc1ccccc1N1CCN(C(=O)CSc2ncnc3scc(-c4ccccc4)c23)CC1 was read as Yeast UUG start -4.1, HIV Env fusion 4.3, MT1-MMP act inh 1.3, PABP polyA inh 0.1, eIF4H inh -9.4, Rce1 inh inactive, CSC inhib 27.3 and MT1-MMP act inh RFP 0.2.
`Cc1ccc(NC2=CC(=O)OC(C)C2)cc1` (centres undefined) gave Yeast UUG start -33.7, MT1-MMP act inh 2.6, PABP polyA inh -9.3, eIF4H inh 1.4, Rce1 inh inactive, CSC inhib -0.4 and MT1-MMP act inh RFP 2.5.
Screening COCCn1c(C)cc(/C=C(\C#N)C(=O)OC(C)C(=O)Nc2ccc(NC(C)=O)cc2)c1C (centres undefined) returned Yeast UUG start 9.9, MT1-MMP act inh 1.3, Rce1 inh inactive, CSC inhib -15.1 and MT1-MMP act inh RFP 1.8.
`CC(=O)NC(c1cccc([N+](=O)[O-])c1)c1ccc2cccnc2c1O` (centres undefined) gave Yeast UUG start -23.1, HIV Env fusion 22.9, MT1-MMP act inh 13.0, PABP polyA inh 8.4, eIF4H inh 22.0, Rce1 inh inactive, CSC inhib 102.4* and MT1-MMP act inh RFP -2.7.
`CCCCc1nc2cc(C(=O)NC(C)c3cnn(C)c3)ccc2o1` (centres undefined) gave Yeast UUG start -13.7, HIV Env fusion -45.0, MT1-MMP act inh -0.9, PABP polyA inh 2.1, eIF4H inh -4.2, Rce1 inh inactive, CSC inhib -10.9 and MT1-MMP act inh RFP -3.4.
N#Cc1ccccc1S(=O)(=O)N1CCN(C(=O)c2cn(-c3ccccc3)nc2-c2cccnc2)CC1 was read as Yeast UUG start 11.7, MT1-MMP act inh -0.5, CSC inhib -2.6 and MT1-MMP act inh RFP 3.2.
CCCOc1ccc(C2C(C(=O)c3cc4ccccc4o3)=C(O)C(=O)N2c2cc(C)on2)cc1OC (centres undefined) was read as Yeast UUG start 1.8, HIV Env fusion 2.5, MT1-MMP act inh 14.1, Rce1 inh inactive, CSC inhib -10.7 and MT1-MMP act inh RFP 6.4.
`CCOC(=O)C1=C(C)NC(C)=C(C(=O)OCC)C1C(=O)OCC(=O)NCCc1ccccc1` gave HIV Env fusion -5.5, MT1-MMP act inh 1.0, CSC inhib -1.7 and MT1-MMP act inh RFP -2.3.
For Cc1ccc(NC(=O)C2CCCN(S(=O)(=O)c3ccc4c(c3)oc(=O)n4C)C2)nc1 (centres undefined) the results were Yeast UUG start -20.0, HIV Env fusion 15.7, MT1-MMP act inh 4.8, PABP polyA inh -11.1, eIF4H inh 0.9, Rce1 inh inactive, CSC inhib -6.4 and MT1-MMP act inh RFP -9.9.
Screening CCOC(=O)Cn1cc(Cl)cc(C(=O)Nc2ccccc2)c1=O returned Yeast UUG start -17.5, HIV Env fusion -3.7, MT1-MMP act inh -1.1, PABP polyA inh -1.1, eIF4H inh -13.4, Rce1 inh inactive, CSC inhib -1.1 and MT1-MMP act inh RFP -0.1.
For COc1ccc2cnn(CCOc3cc(C)ccc3C(C)C)c(=O)c2c1OC the results were Yeast UUG start 1.4, MT1-MMP act inh -6.4, PABP polyA inh 3.9, eIF4H inh -11.7, Rce1 inh inactive, CSC inhib 4.3 and MT1-MMP act inh RFP -7.2.
For Cc1ccc(NC(=O)CCCN2C(=S)NC(C)(C)CC2C)cc1 (centres undefined) the results were HIV Env fusion 7.1, MT1-MMP act inh -3.0, PABP polyA inh 17.3, eIF4H inh 5.1, Rce1 inh inactive, CSC inhib 3.9 and MT1-MMP act inh RFP 1.2.
For CCOc1ccc(N(CC(=O)Nc2ccccc2C(=O)N2CCCC2)S(C)(=O)=O)cc1 the results were Yeast UUG start 2.8, HIV Env fusion -7.5, MT1-MMP act inh -0.2, PABP polyA inh 2.4, eIF4H inh -6.5, Rce1 inh inactive, CSC inhib 3.3 and MT1-MMP act inh RFP -0.7.
